MT1-MMP promoter: MT1-MMP gene expression reporter suppression – cell-based, luciferase reporter, luminescence (AID 618); actives 0.62% (n = 87,000); calls from a first round at 10 µM; hits with a dose series show EC50 in µM; MT1-MMP promoter luciferase reporter cells, luminescence;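 active = over half of the reporter light lost at 10 µM or EC50 under 50 µM; inactive = the rest and hits that failed the dose series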;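 also: actives suppress MT1-MMP promoter-driven transcription so potencies describe inhibitors; HT1080 fibrosarcoma cells; overnight exposure; toxic or luciferase-blocking compounds were not removed from the actives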
Hsc70: Hsc70 inhibitors, probe displacement, primary screen, biochemical, fluorescence polarization (AID 568) | Hsc70 fluorescence polarization, probe displacement; higher % means a stronger effect; strong numbers were not always called active | displacement, % at 20 µM; hits with a dose series show IC50 in µM | 83,000 tested, under 10 active;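 active = displacement above 50% without optical interference and an IC50 on retest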;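 also: ATPase domain with a fluorescein-tagged ATP probe; 0% = vehicle and 100% = excess ADP; read after one hour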
WNV NS2B-NS3 inh: WNV NS2B-NS3 proteinase inhibition | WNV NS2B-NS3 protease, fluorogenic substrate Ex360/Em465; stronger effect = lower value | z-score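 (tested at a level between 10 and 100 µM)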 | actives 0.18% (n = 65,000);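 active = z-score at -3 or under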;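 also: score is relative to mean and spread of the compound wells of a plate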
Target sequence (P06935 1371-1501 limits assumed): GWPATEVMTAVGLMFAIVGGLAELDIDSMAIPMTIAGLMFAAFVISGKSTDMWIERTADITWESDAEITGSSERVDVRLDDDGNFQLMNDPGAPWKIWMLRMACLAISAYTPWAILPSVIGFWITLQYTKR
Target sequence (P06935 1502-1679 limits assumed): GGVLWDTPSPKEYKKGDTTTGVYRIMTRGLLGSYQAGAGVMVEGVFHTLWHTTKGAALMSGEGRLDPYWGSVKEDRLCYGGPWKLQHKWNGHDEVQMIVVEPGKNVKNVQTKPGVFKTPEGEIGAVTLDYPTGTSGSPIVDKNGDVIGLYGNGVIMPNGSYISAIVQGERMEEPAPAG
* hit, by the source's call; i = inactive; · = no result given.

Values run as follows: Hsc70	WNV NS2B-NS3 inh	MT1-MMP promoter
- CC(C)(C)Nc1nc(NC(C)(C)C)nc(-n2ccnc2)n1
    -13.6%	0.95	i
- CCOC(=O)c1c2n(c3ccc(O)cc13)CCC2
    1.7%	·	i
- COC(=O)CNC(=O)c1ccc2c(c1)S(=O)(=O)c1ccccc1C2=O
    -0.6%	0.15	i
- C/C(N)=C(\C#N)C(=O)NCCc1ccccn1
    1.9%	0.85	i
- O=C(NCCCN1CCCC1=O)NC12CC3CC(CC(C3)C1)C2
    2.8%	0.56	i
- Cc1cccc(-n2nnc(C(=O)Nc3ccc(F)cc3)c2N)c1
    -5.4%	-0.85	i
- COc1ccc(C(=O)CSc2nnc(CNC(=O)c3ccc(OC)c(OC)c3)n2C)cc1
    -0.8%	-0.32	i
- C=CCNC(=S)NNC(=O)C(CCCC)CC(C)O (stereo unspecified)
    2.7%	·	i
- N#CCCN(CCC#N)C(=O)COc1ccc(Cl)cc1Cl
    4.1%	0.33	i
- CC1CCCCC1NS(=O)(=O)c1ccc(S(=O)(=O)N2CCN(CCC#N)CC2)cc1 (stereo unspecified)
    -0.8%	0.27	i
- COc1ccccc1N1CCN(C(=O)c2cc(-c3ccc(Cl)c(Cl)c3)on2)CC1
    -5.6%	-0.19	i
- Oc1[nH]c2ccccc2c1C=Nc1ccc2c(c1)OCCO2
    3.4%	0.75	i
- CCOC(=O)CNC(=O)CSc1ncnc2c1cnn2-c1ccccc1
    1.4%	1.17	i
- CC(=O)Nc1cc(NC(C)=O)cc(C(=O)OCC(=O)N2CC(C)OC(C)C2)c1 (stereo unspecified)
    -7.1%	0.23	i
- O=C1C=C(NCC2CCCO2)CC(c2ccccc2)C1 (stereo unspecified)
    0.6%	-1.22	i

(more compounds)
Values run as follows: Hsc70	WNV NS2B-NS3 inh	MT1-MMP promoter
- CC(C)COP(=O)(c1ccc(N(C)C)cc1)C(O)c1ccncc1 (stereo unspecified)
    -6.4%	-0.58	i
- CCOc1ccc(NCCC#N)cc1
    3.7%	·	i
- C=CCn1c(=O)c2c3c(sc2n2c(Nc4ccc(C(=O)OCC)cc4)nnc12)CCCC3
    -1.8%	·	i
- CCc1ccc(CCC(=O)Nc2sc(C)c(C)c2C(=O)OC)o1
    -1.7%	·	i
- C=CCn1c(SCC(=O)Nc2cc(C)c(Cl)cc2OC)nnc1-c1ccco1
    5.5%	0.16	i
- COc1cccc(C(=O)CN2C3=NCCCN3c3ccccc32)c1
    -7.2%	-0.21	i
- COc1ccc(CC(=O)OCn2nnc3ccccc3c2=O)cc1
    -0.6%	-0.44	i
- O=S1(=O)C[C@@H](N2CCOCC2)[C@H](N2CCOCC2)C1
    -4.3%	0.11	i
- Cc1ccc(S(=O)(=O)Nc2c(C)n(C)n(-c3ccccc3)c2=O)cc1
    6.5%	·	i
- CCOC(=O)c1[nH]c(C)c(C(=O)NCc2cccnc2)c1C
    1.2%	-0.35	i
- Cc1cc(Oc2ccc(=O)n(C)n2)nc(Oc2ccc(=O)[nH]n2)n1
    0.1%	0.1	i
- CN(C)S(=O)(=O)N(Cc1ccc(Br)cc1)c1ccccc1
    -0.5%	-0.16	i
- Cc1onc(-c2c(F)cccc2Cl)c1C(=O)NC1=NCCS1
    -1.7%	-0.3	i
- CC(C)(C)c1ccccc1OCC(=O)NCCC(=O)O
    -5.1%	-0.19	i
- Cc1noc(C)c1S(=O)(=O)NCCN1CCN(c2ccccc2)CC1
    3.1%	-0.65	i

(further entries)
Values run as follows: Hsc70	WNV NS2B-NS3 inh	MT1-MMP promoter
- COC(=O)c1cc(COC(=O)c2ccc3ccccc3n2)oc1C
    3.7%	0.31	i
- Cc1ccc(OCCCN2C(=O)C(=O)c3cccc(C)c32)cc1
    1.7%	·	i
- CC(=O)c1ccccc1OCCn1nnc(-c2ccc(C)cc2)n1
    -3.6%	-0.5	i
- Cc1csc2nc(CNS(=O)(=O)c3ccc4c(c3)OCCO4)cn12
    -5.1%	1.46	i
- O=S(=O)(N1CCCCCC1)N1CCN(S(=O)(=O)N2CCOCC2)CC1
    2.0%	-0.35	i
- CC(C)Sc1nc2c(c(=O)[nH]c(=O)n2C)n1Cc1ccc(Cl)cc1
    4.3%	-0.56	i
- COc1ccc(C(=O)CSc2nn3c(=O)c(C(C)(C)C)nnc3s2)cc1
    -1.2%	-0.76	i
- CCOC(=O)c1c(C)c(C(=O)NCc2ccc3c(c2)OCO3)c(C)n1CC
    -2.3%	-1.73	i
- O=C(CC1CCCCC1)NC1CCCC1
    -0.3%	-0.31	i
- O=c1nc2s/c(=C\c3ccco3)c(=O)n2nc1Cc1ccc(F)cc1
    4.3%	0.83	i
- CCOc1ccc(/C(O)=C2\C(=O)C(=O)N(CCN(C)C)C2c2cc(OC)ccc2OC)cc1Cl (stereo unspecified)
    -3.0%	-0.32	i
- CCCCOc1ccccc1C(=O)NCCCC(=O)O
    0.5%	-0.32	i
- Cc1ccccc1N(Cc1ccccc1F)S(C)(=O)=O
    0.3%	·	i
- Cc1csc2nc(CCNS(=O)(=O)c3cccs3)cn12
    6.6%	-0.43	i
- Cc1cc(NC(=O)c2cnn3c(C(F)(F)F)cc(-c4ccc(Br)cc4)nc23)no1
    6.4%	·	i

A second format for part of the listing above:
CCOc1ccc(/C(O)=C2\C(=O)C(=O)N(CCN(C)C)C2c2cc(OC)ccc2OC)cc1Cl (stereo unspecified)
  Hsc70: -3.0%	WNV NS2B-NS3 inh: -0.32	MT1-MMP promoter: i

C=CCn1c(SCC(=O)Nc2cc(C)c(Cl)cc2OC)nnc1-c1ccco1
  Hsc70: 5.5%	WNV NS2B-NS3 inh: 0.16	MT1-MMP promoter: i

Next section.
Values run as follows: Hsc70	WNV NS2B-NS3 inh	MT1-MMP promoter
- COc1ccc(S(=O)(=O)N2CCC(C(=O)NC3CC3)CC2)cc1Cl
    4.3%	0.53	i
- COc1ccc(CN(C(=O)c2cnccn2)C(C(=O)NC(C)(C)C)c2cc(OC)c(OC)c(OC)c2)cc1 (stereo unspecified)
    4.6%	·	i
- O=C(CN1CCN(c2nc(-c3ccc(F)cc3)cs2)CC1)Nc1ccc2c(c1)OCO2
    -2.1%	-1.57	i
- Cc1ccc(C)c(S(=O)(=O)NC(CCC(N)=O)C(=O)O)c1 (stereo unspecified)
    -2.1%	-0.82	i
- Cc1onc(-c2ccccc2Cl)c1C(=O)Nc1nnc(C(C)C)s1
    2.3%	1.03	i
- Cc1cnc(C(=O)OCC(=O)Nc2oc(-c3ccccc3)c(-c3ccccc3)c2C#N)cn1
    2.2%	0.15	i
- COc1ccc(NC(=O)Nc2ccc3c(c2)N(C)C(=O)CS3)cc1OC
    3.3%	1.93	i
- CC(=O)Nc1nnc(SCc2cccc(F)c2)s1
    -2.7%	0.04	i
- CSc1ccccc1NC(=O)c1ccc(Cl)s1
    1.5%	·	i
- N=c1c(C(=O)NC2CCCC2)cc2c(=O)n3ccccc3nc2n1CCN1CCOCC1
    3.3%	1.87	i
- O=C(CCNS(=O)(=O)c1ccc(Cl)cc1)NCc1ccccn1
    9.0%	-1.26	i
- Cc1ccc(NC(=O)CSc2nnc(-c3ccccn3)n2C)cc1
    0.7%	0.24	i
- O=C(NCC(c1cccnc1)N1CCN(c2ccc(F)cc2)CC1)c1ccccc1 (stereo unspecified)
    0.3%	-1.5	i
- CCOc1ccc(-n2c(SCc3nc(-c4cccs4)no3)nnc2-c2ccncc2)cc1
    -0.5%	-0.37	i
- O=C(C1=C(O)C(=O)N(c2ncccn2)C1c1ccc(Cl)c(Cl)c1)c1ccco1 (stereo unspecified)
    0.0%	-0.56	i

Continuation:
Values run as follows: Hsc70	WNV NS2B-NS3 inh	MT1-MMP promoter
- Cc1ccc(CN2CC(C(=O)Nc3cc(S(C)(=O)=O)ccc3Cl)CC2=O)cc1 (stereo unspecified)
    -6.3%	·	i
- CC12CCC(C(=O)N3CCN(c4ccccc4)CC3)(CC1=O)C2(C)C (stereo unspecified)
    4.7%	-0.54	i
- Cc1oc2c(CN3CCCC3)c(O)ccc2c(=O)c1-c1ccccc1
    1.2%	0.82	i
- COc1ccccc1CNC(=O)COc1ccccc1OC
    0.8%	-0.09	i
- CCOC(=O)N1CCN(C(=O)c2ccc3c(=O)n(CCOC)c(=O)[nH]c3c2)CC1
    -5.3%	1.33	i
- COc1nc2ccccc2cc1-c1noc(-c2cccnc2)n1
    -7.3%	1.05	i
- O=C(c1scc2c1CCCC2)N1CCOCC1
    -3.8%	-0.16	i
- CCOC(=O)Cn1nc(C)c(-c2ccccc2)c1N
    -3.3%	0.57	i
- c1cnc2c(SCc3ccc(-c4nnco4)cc3)cccc2c1
    5.8%	0.17	i
- CC1Cc2ccccc2N1S(=O)(=O)c1cccc(C(=O)OCC(=O)NC2CCS(=O)(=O)C2)c1 (stereo unspecified)
    0.5%	0.81	i
- COc1cc(NC(=O)CN(c2ccc(C)cc2)S(=O)(=O)c2c(C)n[nH]c2C)cc(OC)c1
    -2.3%	0.47	i
- O=C(Cc1cccs1)Nc1ccc(N2CCOCC2)cc1
    -3.5%	·	i
- CCN(CC)C(=O)CSc1nnc(-c2ccco2)o1
    -2.5%	·	i
- Cc1cc(NC(=O)c2ccccc2-c2ccccc2C(=O)O)no1
    3.0%	0.79	i
- O=C(Nc1nccs1)C1(S(=O)(=O)c2ccc(Cl)cc2)CC1
    5.3%	0.38	i

Next records.
Values run as follows: Hsc70	WNV NS2B-NS3 inh	MT1-MMP promoter
- COc1ccc(C(=O)Nc2nc(-c3ccc(S(=O)(=O)N4CCOCC4)cc3)cs2)cc1
    -2.6%	·	i
- O=S(=O)(c1ccc(Br)cc1)N1CCCN(Cc2ccccc2F)CC1
    9.1%	·	i
- CCOC(=O)C(c1ccccc1)N1CCN(c2ccc(OC)cc2)CC1 (stereo unspecified)
    -2.6%	0.27	i
- COC(=O)[C@@H](NC(=O)Nc1cccc(OC)c1)C(C)C
    0.8%	·	i
- O=C(NC1CCCCC1NC(=O)c1ccco1)c1ccco1 (stereo unspecified)
    0.9%	-1.31	i
- O=C(Cn1ccc(C(F)(F)F)n1)Nc1ccc(S(=O)(=O)NCc2ccco2)cc1
    4.9%	-0.15	i
- CCc1nnc(NC(=O)CN2CCOCC2)s1
    4.7%	2.67	i
- Cc1cc(=O)[nH]c(SCC(=O)N2CCCCCC2)n1
    -10.4%	1.66	i
- CS(=O)(=O)c1ccc2c(c1)SC1=NC(=O)/C(=C/c3ccco3)C(=N)N12
    -36.1%	·	i
- Cc1onc(-c2ccccc2)c1C(=O)n1cc(Br)cn1
    0.7%	·	i
- CC(C)c1ccc(NC(=O)N(CCc2nc3ccccc3[nH]2)C2CCCC2)cc1
    -0.2%	·	i
- COc1cc2c(cc1OC)CN(c1ccc(-c3ccccc3OC)nn1)CC2
    -30.4%	-0.62	i
- COc1ccccc1N1CCN(C(=O)CCCCn2c(=O)[nH]c3ccsc3c2=O)CC1
    3.5%	-0.1	i
- COc1ccc(CC(=O)Nc2nc3ccccc3s2)cc1S(=O)(=O)N1CCOCC1
    -4.3%	0.06	i
- CCOC(=O)c1[nH]c(C)c(C(=O)Nc2ccc(F)cc2)c1C
    -4.1%	-0.23	i
- COc1ccc(N(CC(=O)Nc2ccc(C)cn2)S(=O)(=O)c2c(C)nn(C)c2C)cc1
    0.3%	0.00497	i
- CC(C)NS(=O)(=O)c1ccc(CCC(=O)NCc2cccnc2)cc1
    0.3%	-0.67	i

By substructure, the entries above with an aryl thioether with sulfur outside any ring.
Values run as follows: Hsc70	WNV NS2B-NS3 inh	MT1-MMP promoter
- COc1ccc(C(=O)CSc2nnc(CNC(=O)c3ccc(OC)c(OC)c3)n2C)cc1
    -0.8%	-0.32	i
- CCOC(=O)CNC(=O)CSc1ncnc2c1cnn2-c1ccccc1
    1.4%	1.17	i
- C=CCn1c(SCC(=O)Nc2cc(C)c(Cl)cc2OC)nnc1-c1ccco1
    5.5%	0.16	i
- CC(C)Sc1nc2c(c(=O)[nH]c(=O)n2C)n1Cc1ccc(Cl)cc1
    4.3%	-0.56	i
- COc1ccc(C(=O)CSc2nn3c(=O)c(C(C)(C)C)nnc3s2)cc1
    -1.2%	-0.76	i
- CC(=O)Nc1nnc(SCc2cccc(F)c2)s1
    -2.7%	0.04	i
- CSc1ccccc1NC(=O)c1ccc(Cl)s1
    1.5%	·	i
- Cc1ccc(NC(=O)CSc2nnc(-c3ccccn3)n2C)cc1
    0.7%	0.24	i
- CCOc1ccc(-n2c(SCc3nc(-c4cccs4)no3)nnc2-c2ccncc2)cc1
    -0.5%	-0.37	i
- c1cnc2c(SCc3ccc(-c4nnco4)cc3)cccc2c1
    5.8%	0.17	i
- CCN(CC)C(=O)CSc1nnc(-c2ccco2)o1
    -2.5%	·	i
- Cc1cc(=O)[nH]c(SCC(=O)N2CCCCCC2)n1
    -10.4%	1.66	i

Assay outcomes deposited in PubChem by several laboratories.

Some of the compounds tested; rates above refer to the full screens.
